High-throughput results deposited in PubChem by several laboratories.
Mtb bLac sens: beta-lactam sensitization of Mtb H37Rv, H37Rv; M. tuberculosis H37Rv growth with meropenem, percent inhibition; hits of this screen are not shown here; 330,000 tested, 0.27% active; AID 434955, 2010; inhibition, % at 25 µM;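 active means about 74% or more and at least 40 points above the plate without the antibiotic, then above 30% in a dose series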;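 further: growth measured after seven days incubation then overnight dye step; 0% = bacteria only wells and 100% = bacteria with antibiotic; twin plates without the antibiotic show which effects depend on it; some results filed as inactive read as strong as hits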
Arbovirus anti: antivirals against arbovirus infection, primary screen, cell-based, full library, 10K replicate subset; arbovirus infection cell-based antiviral screen; inhibition, % at 10 µM; 200,000 tested, 0.37% active;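 active means inhibition from about 30%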;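 further: bluetongue infection of BSR cells; cell survival read as ATP light after 72 h; 0% = infected wells without compound and 100% = uninfected wells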
RecA splice inh: Mtb RecA intein splicing inhibitors, primary screen, biochemical, fluorescence, HTS | Protein RecA (Mycobacterium tuberculosis (strain ATCC 25618 / H37Rv)), P9WHJ3 | cell-free RecA intein splicing | inhibition, %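 (about 9 µM by stock and volumes)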 | 290,000 tested, 0.75% active | AID 2221, 2009; in the data active means inhibition above about 30%;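 further: 0% = vehicle wells and 100% = reference inhibitor control wells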
Target sequence (P9WHJ3 whole entry, looked up, canonical isoform): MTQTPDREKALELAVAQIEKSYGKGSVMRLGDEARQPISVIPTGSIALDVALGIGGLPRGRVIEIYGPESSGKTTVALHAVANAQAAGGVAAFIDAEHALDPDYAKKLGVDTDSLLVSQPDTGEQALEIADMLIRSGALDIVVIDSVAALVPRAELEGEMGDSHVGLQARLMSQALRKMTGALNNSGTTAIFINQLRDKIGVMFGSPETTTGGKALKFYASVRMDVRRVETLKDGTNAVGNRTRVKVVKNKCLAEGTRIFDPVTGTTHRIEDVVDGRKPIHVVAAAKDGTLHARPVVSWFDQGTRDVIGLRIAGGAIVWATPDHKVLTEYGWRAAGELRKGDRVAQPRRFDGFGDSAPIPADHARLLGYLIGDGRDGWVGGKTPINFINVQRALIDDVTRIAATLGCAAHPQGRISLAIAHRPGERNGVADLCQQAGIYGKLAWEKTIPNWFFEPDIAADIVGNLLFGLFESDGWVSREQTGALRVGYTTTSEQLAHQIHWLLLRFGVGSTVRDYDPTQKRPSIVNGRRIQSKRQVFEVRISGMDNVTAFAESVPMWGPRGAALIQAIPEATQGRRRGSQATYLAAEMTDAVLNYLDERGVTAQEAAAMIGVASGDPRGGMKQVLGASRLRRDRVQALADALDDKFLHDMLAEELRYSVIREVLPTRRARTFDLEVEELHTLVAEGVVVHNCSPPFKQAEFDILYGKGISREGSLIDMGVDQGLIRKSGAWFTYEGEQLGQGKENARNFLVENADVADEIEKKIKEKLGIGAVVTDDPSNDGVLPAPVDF
Mtb H37Rv: M. tuberculosis H37Rv growth inhibitors, H37Rv strain (AID 1626). M. tuberculosis H37Rv growth inhibition; higher % means a stronger effect. one-dose inhibition, % at 10 µM; IC50 in µM for titrated hits. 220,000 tested, 0.95% active;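 active means confirmed in a dose series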;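 further: bacteria incubated seven days before Alamar blue readout; 0% = bacteria only wells and 100% = bacteria with antibiotic wells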
YopH PTP inh: YopH tyrosine phosphatase inhibitors, primary screen, biochemical, fluorescence Ex485/Em525; inhibition, %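 (about 10 µM by stock and volumes)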; AID 898, 2007; YopH tyrosine phosphatase [Yersinia enterocolitica]; 140,000 tested, 0.16% active;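 active means inhibition of 50% or more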;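 further: controls were vehicle for no effect and minimum signal wells for full effect; inactives centre near -20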
Arbovirus anti repeat: further read-out of Arbovirus anti, marked with its call; inhibition, %; measured here: 10K subset replicate screen; many hits read low in the repeat;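 first of two repeat runs on a subset; 0% = infected and 100% = uninfected wells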
The depositor's hits bear a star; · = no result given; & = joins results of further samples.

SMILES | Mtb bLac sens | Arbovirus anti | RecA splice inh | Mtb H37Rv | YopH PTP inh | others
CCOC(=O)C1=C(Nc2ccc(C)cc2)CC(C)(O)C(C(=O)OCC)C1c1ccccc1 (centres undefined) | 5 | -4 | -1.3 | -10% | 7
CC(=O)O[C@]1(C(C)=O)CC[C@H]2[C@@H]3C=C(C)C4=CC(=O)CC[C@]4(C)[C@H]3CC[C@@]21C | 6 | 25&15 | 11 | 0%&3% | -39
O=C(NCCCNC(=O)c1cnccn1)c1ccc(Cl)cc1 | -8 | · | -2.3 | · | ·
COc1ccc(-n2ncc3c(NCC(C)C)ncnc32)cc1 | 91 | -2 | 1.2 | 17% | -30
CCOC(=O)c1cn(CC)c2cc(N3CCOCC3)c(F)cc2c1=O | -7 | 1 | 4.3 | -6% | -33
CCC(C)NC(=O)c1ccccc1-c1ccccc1C(=O)NC(C)CC (centres undefined) | 27 | 10 | -1.6 | -14% | ·
COc1ccc([N+](=O)[O-])cc1NC(=O)C1(c2ccccc2)CCOCC1 | -4 | -1 | -1.0 | -4% | ·
Cc1ccc2[nH]c(CNC(=O)C3CCCCC3)cc2c1 | 4 | · | 3.4 | · | ·
COCCSc1ccccc1C(=O)NCc1cccnc1 | -4 | 3 | -0.5 | -4% | ·
O=C(CCc1nc2ccccc2[nH]1)NCc1ccc2c(c1)OCO2 | -2 | -7 | 0.2 | 3% | -19 | Arbovirus anti repeat=-4
Cc1cc(C)nc(N2C(=O)CC(Cc3ccc(Cl)cc3)C2=O)n1 (centres undefined) | -3 | 3 | -0.4 | -3% | ·
Cn1c(NC(=O)Cc2cccc3ccccc23)cc(=O)n(C)c1=O | -3 | 17 | -0.8 | 8% | ·
CN(C(=O)CC1C(=O)NCCN1C/C=C/c1ccccc1)C1CCOCC1 (centres undefined) | -2 | -2 | -0.2 | -7% | ·
Oc1ccc(/C=N/Nc2nc(-c3cccnc3)nc3ccccc23)c(O)c1 | 2 | · | · | 6% | ·
CCc1nnc(NC(=O)/C=C/c2ccco2)s1 | -3 | 4 | · | -4% | -33
Cc1c(C)n(CCC(=O)O)c2ccccc12 | -2 | 0 | 4.0 | -3% | ·
CC(=O)CC(C)(C)S(=O)(=O)c1ccc(Oc2ccc(S(=O)(=O)C(C)(C)CC(C)=O)cc2)cc1 | 19 | -3 | · | -10% | -10
N#CC1(c2ccc(NC(=O)c3ccccc3F)cc2)CCCC1 | 6 | -4 | -1.5 | 7% | -9
COc1ccc(/C=N/NC(=O)c2ccc(CSc3nncn3C)cc2)cc1OC | -10 | 4 | 0.2 | -2% | ·
CCOc1cccc2sc(N(CCCN(C)C)C(=O)c3ccc(S(=O)(=O)N4CCCCCC4)cc3)nc12 | -1 | · | -0.3 | · | ·
CCn1c(C)cc(/C=C2/SC(=S)NC2=O)c1C | 2 | -5 | -3.3 | -2% | -21
CNC(=O)NC(=O)C(OC(=O)Cc1cccc(C(F)(F)F)c1)c1ccccc1 (centres undefined) | -2 | · | 1.0 | · | ·
O=C(CSc1nc2ccccc2o1)N/N=C/c1ccc(O)c(O)c1 | 10 | · | -6.6 | -6% | ·
O=C(CSc1nnc2sc3ccccc3n12)c1ccco1 | 2 | 3 | -0.6 | 1% | 13
O=C1c2ccccc2C(=O)N1n1cccc1 | 8 | 6 | -1.0 | 7% | -32

A portion from the list above, as a working copy:
SMILES | Mtb bLac sens | Arbovirus anti | RecA splice inh | Mtb H37Rv | YopH PTP inh | others
CCOc1cccc2sc(N(CCCN(C)C)C(=O)c3ccc(S(=O)(=O)N4CCCCCC4)cc3)nc12 | -1 | · | -0.3 | · | ·
CCn1c(C)cc(/C=C2/SC(=S)NC2=O)c1C | 2 | -5 | -3.3 | -2% | -21
CNC(=O)NC(=O)C(OC(=O)Cc1cccc(C(F)(F)F)c1)c1ccccc1 (centres undefined) | -2 | · | 1.0 | · | ·
O=C(CSc1nc2ccccc2o1)N/N=C/c1ccc(O)c(O)c1 | 10 | · | -6.6 | -6% | ·
O=C(CSc1nnc2sc3ccccc3n12)c1ccco1 | 2 | 3 | -0.6 | 1% | 13
O=C1c2ccccc2C(=O)N1n1cccc1 | 8 | 6 | -1.0 | 7% | -32

Going on with the list:
SMILES | Mtb bLac sens | Arbovirus anti | RecA splice inh | Mtb H37Rv | YopH PTP inh | others
CC(=O)Nc1ccc(S(=O)(=O)NC(CC(=O)O)c2ccc(OC(C)C)cc2)cc1 (centres undefined) | -9 | -7 | 2.9 | -8% | -27
CC(NC(=O)c1cc(=O)[nH]c2ccc(Br)cc12)c1ccccc1 (centres undefined) | -4 | -8 | -0.8 | 6% | ·
Cn1nc(OCC(N)=O)ccc1=O | 0 | 1 | -6.4 | 4% | -18
COc1ccccc1N1CCN(C2CCN(C(=O)COc3ccccc3)CC2)CC1 | -4 | 2 | -25 | 4% | ·
COCCN(CCOC)S(=O)(=O)c1ccc(C(=O)Nc2nnc(COC)o2)cc1 | 3 | 1 | -10 | -4% | ·
Cc1cccc(NC(=O)C2CCCN(c3nc(C)cc(C)n3)C2)c1 (centres undefined) | -11 | 4 | -0.7 | -2% | -34
CCOc1ccccc1N1CCN(c2nc3ccccc3nc2C(C#N)C(=O)OC)CC1 (centres undefined) | 0 | -3 | 5.2 | 23% | -8
COc1cc(OC)c(N(C)C(=O)CCNC(=O)Cn2cnc3ccccc3c2=O)cc1Cl | 3 | -3 | 2.5 | -1% | -25
COc1ccc(N2CCN(C(=O)CCC(=O)NNc3nc4ccccc4c4nc(C)nn34)CC2)cc1 | -1 | · | -1.7 | · | ·
Cc1cc(OCC#N)nc(N)n1 | 0 | 5 | · | -1% | ·
CC(=O)c1oc2ccccc2c1NC(=O)CN1CCCCC1 | 1 | -6 | 0.3 | -5% | 1
O=C(Nc1nsc(-c2ccccc2)n1)c1ccncc1 | -15 | 1 | 0.6 | 0% | -31
C/C(=N\Nc1ccc(Cl)c(C(=O)O)c1)c1ccc2c(c1)OCO2 | -3 | 2 | -4.1 | -2% | ·
COc1ccccc1CN1[C@@H](CC(C)=O)c2cc(C(F)(F)F)ccc2S1(=O)=O | 1 | · | 1.8 | -4% | ·
Cc1ccc(-c2cc(-c3n[nH]c(=S)n3C)c3ccccc3n2)cc1 | 81 | 4 | 0.3 | 42% | ·
COCCCn1nnnc1SCC(=O)Nc1ccc2c(c1)OCCO2 | 1 | -3 | 1.1 | 4% | ·
COc1ccc(S(=O)(=O)NCCC(=O)NC2CCCCCCC2)cc1 | -5 | 0 | 1.6 | -2% | -22
Brc1ccc(-n2cc(-c3ccccc3)c3c(NN4CCOCC4)ncnc32)cc1 | 51 | -15 | 17 | -2% | -20
Cc1ccc(S(=O)(=O)NNC(=O)C2CCN(Cc3ccccc3)CC2)cc1 | -6 | 2 | -0.3 | -10% | -19
CC(C)Cc1c2c([nH]c(=S)c1C#N)CCCC2 | 11 | 1 | 1.2 | 18% | -34
Cc1cc(NC(=O)CN(C)S(=O)(=O)c2cccc(Cl)c2)no1 | 6 | 1 | -1.0 | 6% | ·
Cc1nc2ccc(NC(=S)NCc3ccccc3)cc2nc1C | -5 | 3 | -1.3 | 1% | ·
CCOC(=O)c1cnc2c(OC)cccc2c1N1CCN(c2ccc(OC)cc2)CC1 | 81 | -2 | 13 | -5% | -26
COc1ccc(C(=O)N2CCN(Cc3ccc(OC)c(OC)c3)CC2)cc1 | 0 | · | 0.1 | · | ·
Cc1ncc(S(=O)(=O)c2ccccc2)c(-c2ccccc2Cl)n1 | -8 | 3 | -2.0 | -4% | -26
Later entries:
SMILES | Mtb bLac sens | Arbovirus anti | RecA splice inh | Mtb H37Rv | YopH PTP inh | others
CC(NC(=O)c1cc(-c2ccccc2)nc2ccccc12)C1CCCO1 (centres undefined) | -3 | 2 | -1.8 | -7% | ·
COc1cc(C(N)=O)ccc1OCc1ccccc1 | 2 | 2 | -5.0 | -4% | -11
CC(=O)NC(Cc1ccc(C(C)C)cc1)C(=O)NC1CCN(C(=O)c2cccc(C)c2)CC1 (centres undefined) | 4 | 3 | 9.9 | -1% | ·
CC(=O)c1cccc(NC(=O)Cn2cnc(S(=O)(=O)N3CCOCC3)c2)c1 | -1 | · | 11 | · | ·
CC(=O)C1C(c2ccc(O)cc2)NC(=O)NC1(O)C(F)(F)F (centres undefined) | 3 | 7 | -0.4 | 4% | · | Arbovirus anti repeat=2
N#Cc1c2ncn(CC(=O)c3ccc(Br)cc3)c(=O)c2c2n1CCC2 | 4 | -5 | 0.5 | 12% | -9
O=C(Nc1cc([N+](=O)[O-])ccc1O)c1cccc(NC(=O)c2ccco2)c1 | -3 | · | -0.5 | · | ·
COc1cc(NC(C)=O)ccc1-c1cc2ccccc2oc1=O | -6 | -12 | -1.9 | -4% | ·
Cc1ccc(C)c(NC(=O)CSc2nnc(C)c(=O)n2N)c1 | -1 | 0 | -6.1 | -5% | 7
CN1CCN(c2ccc(C(=O)NC3CCCCC3)cc2[N+](=O)[O-])CC1 | 0 | -12 | 6.0 | -4% | ·
COc1ccccc1N1CCN(C(=O)COc2ccc(S(=O)(=O)NC(C)(C)C)cc2)CC1 | 3 | 4 | -0.5 | 1% | ·
CCOC(=O)Cc1csc(NC(=O)CCCN2C(=O)c3ccccc3C2=O)n1 | 3 | -1 | -1.0 | -6% | 0
Cc1nnc(SCC(=O)N2CCOCC2)s1 | -6 | 0 | -3.6 | -3% | -21
CCNCc1cc(Cl)c(OCc2ccccc2)c(OCC)c1 | 39 | -31 | 0.1 | -3% | ·
CC1(C)C(=O)Nc2ccccc2N1C(=O)CSc1nnc2ccccn12 | 1 | -2 | -0.9 | -1% | -34
COc1ccccc1/C=C/C(=O)N1CCC(c2ccccc2)C1 (centres undefined) | 2 | -5 | 0.7 | 2% | -22
CCC(C)c1ccc2oc(-c3ccc(NC(=O)Cn4cnc5c(=O)n(C)c(=O)n(C)c54)cc3)nc2c1 (centres undefined) | 53 | -13 | -0.8 | 0% | 16
C=CCn1c(SCC(=O)N2CCN(CCO)CC2)nc2sc3c(c2c1=O)CCC3 | -2 | · | 0.9 | · | ·
O=C(COC(=O)/C=C/c1cccs1)Nc1ccccc1Cl | 4 | 10 | -6.4 | 2% | ·
Cn1c(=O)n(C)c2cc(S(=O)(=O)NCc3ccccc3)ccc21 | -10 | 4 | -2.2 | -4% | -19
COc1ccc2c(c1)O[C@H](c1ccc3c(c1)OCO3)[C@@H](O)C2=O | 20 | 6 | -1.8 | -2% | -21
CCOc1ccc(C2/C(=C(\O)c3ccc4c(c3)OCCO4)C(=O)C(=O)N2CCCN2CCOCC2)cc1 (centres undefined) | 0 | · | -2.6 | · | ·
Cc1cc(OCc2nn[nH]n2)c2c3c(c(=O)oc2c1)CCCC3 | -4 | -2 | 2.5 | -13% | -54
Fc1ccc(CNc2nc(-c3ccccc3)nc3ccccc23)cc1 | · | -5 | 19 | 4% | ·
O=C(NCc1nc2ncc(Br)cc2[nH]1)c1ccccc1 | · | -4 | 0.4 | -4% | -33
Next part.
SMILES | Mtb bLac sens | Arbovirus anti | RecA splice inh | Mtb H37Rv | YopH PTP inh | others
COc1ccc(N2CCN(CC(O)COC(c3ccccc3)c3ccccc3)CC2)cc1 (centres undefined) | 2 | · | -2.7 | · | ·
COc1ccc(Cl)cc1S(=O)(=O)NC(C)C(=O)NCCCn1ccnc1 (centres undefined) | -4 | · | 0.2 | · | ·
CN1C(=O)[C@@H]2[C@H](C1=O)[C@@H]1C(=O)Nc3ccccc3C(=O)N1[C@@H]2c1ccc(F)cc1 | -20 | · | -2.9 | · | ·
N#CC(C#N)=C1NC2(CCCC2)Cc2ccccc21 | 4 | 5 | -0.7 | -5% | -25
CN(C)CCC1CCN(c2cc(C#N)c(C#N)cc2[N+](=O)[O-])CC1 | -10 | -5 | -0.3 | 2% | ·
CCOc1ccc(CCNC(=O)COC(=O)CNS(=O)(=O)c2ccc(C)cc2)cc1OCC | -1 | · | -3.4 | · | ·
O=C(O)c1ccc2c(=O)[nH]c(CN3CCOCC3)nc2c1 | -4 | -2 | 2.0 | · | -14
CCCn1c(SCC(=O)NC2CCCc3ccccc32)n[nH]c1=O (centres undefined) | 8 | 5 | -1.1 | 5% | ·
O=C(Nc1ccc(F)cc1)C(c1ccccc1)N1CCN(C(=O)c2ccco2)CC1 (centres undefined) | 4 | -1 | 0.9 | 2% | -8
O=C(Nc1nnc(C2=COCCO2)o1)c1ccc(S(=O)(=O)N2CCOCC2)cc1 | 46 | 2 | 0.0 | 8% | ·
O=C(COC(=O)Cc1ccccc1[N+](=O)[O-])Nc1nnc(-c2ccccc2)o1 | 39 | · | -0.5 | · | ·
Cc1ccc(C(=O)Nc2ccc(N3CCCC3)cc2)c(C)c1 | 2 | -3 | -1.6 | 95% | ·

Only part of the results is shown. The share of hits here may be higher or lower than overall.
